HPGD inh = qHTS Assay for Inhibitors of HPGD (15-Hydroxyprostaglandin Dehydrogenase) | 15-hydroxyprostaglandin dehydrogenase [NAD(+)] (Homo sapiens), P15428 | purified HPGD, NADH fluorescence kinetic, PGE2 substrate | Potency, µM, without a hit: at the top dose activity change, negative = inhibition, usual class: inhibitors | 150,000 tested, 4.3% active | AID 894, 2007; active = well fitted inhibition curve with a large enough effect (not every such curve was filed as active); inconclusive = small, poorly fitted or top-dose-only effect, or another doubt; inactive = no such curve, though single readings can be large or run the other way;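 note: top concentration of the series not given in the record; plate controls included wells without enzyme; inactives centre near -10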
Target sequence (P15428 whole entry, looked up): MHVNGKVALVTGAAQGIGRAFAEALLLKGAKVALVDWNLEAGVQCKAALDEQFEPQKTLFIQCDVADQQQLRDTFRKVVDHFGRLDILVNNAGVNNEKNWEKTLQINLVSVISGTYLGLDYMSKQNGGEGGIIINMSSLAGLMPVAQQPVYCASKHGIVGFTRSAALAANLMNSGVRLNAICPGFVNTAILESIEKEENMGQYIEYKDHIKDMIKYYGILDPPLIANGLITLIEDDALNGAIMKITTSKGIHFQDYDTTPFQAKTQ
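NADH formation kinetics: reaction with 30 uM PGE2 and 1 mM NAD+ (final), 20 nM enzyme, Tris-HCl pH 8 with Tween 20, after 15 min compound preincubation at room temperature. Fluorescence change, last versus first of five reads.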
* hit, by the source's call; ? = inconclusive. % is set by controls: 0 for no effect and ±100 for the full control effect; potency is the fitted concentration of half-maximal effect.

SMILES | HPGD inh
NC(=O)C1CCN(C(c2ccccc2Cl)c2nnnn2Cc2ccc3c(c2)OCO3)CC1 (configuration not stated) | -4%
CCOC(=O)c1c(C)c(C(=O)NCc2cccs2)c(C)n1C | -13%
COc1ccc2c(c1)C(C1C(=O)CCCC1=O)c1ccccc1O2 (configuration not stated) | -3%
COc1cccc(=O)c2c(C)n(C)c(C)c12 | -6%
CCOc1ccc(NC(=O)[C@@H](NC(=O)c2ccccc2Br)C(C)C)cc1 | -7%
COc1ccc(NC(=S)Nc2ccc(N)c([N+](=O)[O-])c2)cc1 | ?
CC(=C/c1ccccc1)/C=N/NC(=O)c1cnccn1 | -6%
Cc1c(C)c(C)c(CC2(C)CSC2)c(CC2(C)CSC2)c1C | -1%
CCN(Cc1ccccc1)C(=O)COC(=O)c1n[nH]c2ccccc12 | -21%
COc1ccc(C2N(S(=O)(=O)c3ccccc3)CCN2S(=O)(=O)c2ccc(C)cc2)cc1 (configuration not stated) | -12%
CCN(CC(=O)O)S(=O)(=O)c1cc(Cl)ccc1Cl | 4%
O=C(COc1ncnc2c(Cl)cc(Cl)cc12)NC1CCCCCC1 | ?

Given as labelled records: 4 of the compounds above.
CC(=C/c1ccccc1)/C=N/NC(=O)c1cnccn1
  HPGD inh: -6%

Cc1c(C)c(C)c(CC2(C)CSC2)c(CC2(C)CSC2)c1C
  HPGD inh: -1%

CCN(Cc1ccccc1)C(=O)COC(=O)c1n[nH]c2ccccc12
  HPGD inh: -21%

COc1ccc(C2N(S(=O)(=O)c3ccccc3)CCN2S(=O)(=O)c2ccc(C)cc2)cc1 (configuration not stated)
  HPGD inh: -12%

(listing goes on)
SMILES | HPGD inh
COc1ccc(NC2CC(=O)NC2=O)cc1 (configuration not stated) | 3%
CCCCC(NC(=O)c1ccc(Cl)cc1)C(=O)O (configuration not stated) | -2%
C=CCn1c(SCc2ccc(C#N)cc2)nnc1-c1cccc(OC)c1 | -7%
O=C(COC(=O)c1ccccc1C(=O)N1CCN(c2ccc(F)cc2)CC1)NCc1ccccc1 | -5%
Cc1ccc(C2c3c(oc4ccccc4c3=O)C(=O)N2c2nnc(C(C)C)s2)o1 (configuration not stated) | -7%
Cc1cc(C(F)(F)F)nn1CC(=O)N1CCCC1 | -6%
O=C(NNC(=O)c1cc2cc3ccccc3nc2s1)c1ccc(F)cc1 | -22%
CCOC(=O)N1CCC(Nc2nc3ccccc3nc2NS(=O)(=O)c2ccc(Cl)cc2)CC1 | -4%
CCCn1c(Nc2ccc(Cl)cc2)nc2ccccc21 | -11%
O=C(Nn1c(Cc2cccs2)nc2ccccc2c1=O)c1cccs1 | -2%
CC(C)C[C@H](NC(=O)C1OC1C(=O)O)C(=O)NCCCCN=C(N)N (some centres not stated) | -6%
CNC(=O)CN(C)S(=O)(=O)c1ccc(F)cc1 | 4%

3 structures out of the list, sorted by count of non-hydrogen atoms, ascending:
SMILES | HPGD inh
CNC(=O)CN(C)S(=O)(=O)c1ccc(F)cc1 | 4%
CCOc1ccc(NC(=O)[C@@H](NC(=O)c2ccccc2Br)C(C)C)cc1 | -7%
CCOC(=O)N1CCC(Nc2nc3ccccc3nc2NS(=O)(=O)c2ccc(Cl)cc2)CC1 | -4%

More results:
SMILES | HPGD inh
COc1ccc(N2CC(C)Cn3c2nc2c3c(=O)n(Cc3ccccc3F)c(=O)n2C)c(OC)c1 (configuration not stated) | -17%
Cc1noc(NS(=O)(=O)c2ccc(NC(=O)CS(=O)(=O)c3ccccc3)cc2)c1C | -5%
COc1cc(C(=O)Nc2nnc(-c3sccc3C)s2)cc(OC)c1OC | ?
CCOCCCNC(=O)N[C@@H](C)C(=O)OC | -4%
CCCCN(CC)CCNC(=O)CN(C)S(=O)(=O)c1ccc2c(c1)c(=O)n(C)c(=O)n2C | -8%
CCOC(=O)C1CCN(C(=O)c2c(-c3c(Cl)cccc3Cl)noc2C)CC1 | -3%
COc1ccccc1Cn1c(=O)c2ccccc2n2c(SCC(=O)N3CCCCC3)nnc12 | ?
COC(=O)c1ccc(NC(=O)c2ccccc2N(C)S(C)(=O)=O)cc1 | -21%
O=C(c1cc(C(F)(F)F)cc(C(F)(F)F)c1)N1CCC2(CCCN(c3ccccc3)C2)CC1 | -22%
CC1CN(c2nc(-c3ccccc3)nc3ccccc23)CC(C)O1 (configuration not stated) | -13%
Cc1cc(N2C(=O)C(O)=C(C(=O)c3cccs3)C2c2ccccc2)no1 (configuration not stated) | -2%
COc1ccc(-c2csc(NC(=O)c3nc(-c4ccccc4)oc3C)n2)cc1 | -14%
COc1c([N+](=O)[O-])c(=O)n(-c2ccccc2)c2ccccc12 | -17%
COc1ccc(S(=O)(=O)N2CCC(C)CC2)cc1Br | -8%
Cc1ccnc(SCCn2c(N3CCCCC3)nc3c2c(=O)n(C)c(=O)n3C)n1 | -13%
O=C(CSc1cn(CCNC(=O)c2ccccc2)c2ccccc12)NCc1ccco1 | -10%
Clc1ccc(NC2=NCCCCC2)cc1 | -28%
N#C/C(=C/c1cn(-c2ccccc2)nc1-c1cccc(OCc2ccccc2)c1)C(=O)NCCCn1ccnc1 | ?
Cn1c(=O)c(=O)n(C)c2cc(S(=O)(=O)N3CCc4ccccc43)ccc21 | -6%
CC1CCN(C(=O)CSc2nnc(Cc3cccn3C)n2CCc2ccccc2)CC1 | -10%
CCOC(=O)c1cc(C)sc1/N=C/C1=C(O)CCCC1=O | -9%
COc1cc(SC)ccc1C(=O)Nc1ccc2c(c1)CCN2S(C)(=O)=O | 2%
O=C(Cc1c[nH]c2ccccc12)Nc1nccs1 | -11%
COc1ccc2nc(C)[nH]c(=O)c2c1 | -23%
O=C(NC1CCCCC1)C(c1cccs1)N(CC1CCCO1)C(=O)c1csnn1 (configuration not stated) | -15%
CC12CCC(CC1=O)C2(C)C (configuration not stated) | -10%
Cc1cccc(NC(=O)/C(=C/c2cccc([N+](=O)[O-])c2)NC(=O)c2cccs2)c1 | -6%
COc1ccc(OC)c(NC(=O)CNC(=O)Cn2ccc3ccccc3c2=O)c1 | -9%
c1ccc2c(c1)NC(c1ccncc1)n1c-2nc2ccccc21 (configuration not stated) | -3%
CC(=O)c1cc2c(cc1NC(=O)CCn1cccc1)OCO2 | -19%
C=CCOC(=O)c1ccc(-n2cncn2)nc1 | -9%
COc1ccccc1OCC(=O)Nc1ccc(S(=O)(=O)Nc2nc(C)cc(C)n2)cc1 | ?
CCCS(=O)(=O)N1CCN(C(=O)c2ccccc2F)CC1 | -14%
O=C(Nc1nnc(C2CC2)s1)c1cc(-c2ccccc2)nn1-c1ccccc1 | -9%
COc1ccc(NS(=O)(=O)c2ccc3oc4ccccc4c3c2)cn1 | 22µM*
NC(=O)CSc1nnc(-c2ccco2)n1N | -1%
Clc1ccc(OCc2cnc(Cl)s2)cc1 | -7%
Cc1cc(O)c(C)c2c1CC[C@H]1[C@H](C)C(=O)O[C@H]21 | -2%
CSc1nc(C)cc(SCC(=O)Nc2ccc(Cl)cc2Cl)n1 | -7%
CCCCN(C)CCCNC(=O)CN1C(=O)CSc2ccc(S(=O)(=O)N3CCOCC3)cc21 | -12%
O=C(Nc1cccc(C(F)(F)F)c1)C(Sc1ncnc2ccccc12)c1ccccc1 (configuration not stated) | -21%
COC(=O)c1cc2occc2n1Cc1nc(-c2ccc(Cl)cc2)oc1C | -10%
CCSc1nnc(NC(=O)CC)s1 | -8%
O=C1CN(C(=O)CSc2nc3ccccc3n2CCc2ccccc2)c2ccccc2N1 | -7%
Cc1nn(C)cc1CNC(=O)c1ccccc1Br | -8%
Cc1ccc(S(=O)(=O)CC(=O)N(C)C)cc1 | -5%
Cc1ccc(Cn2cccc(NC(=O)c3ccco3)c2=O)cc1 | -11%
COc1ccc(-n2c(C)nn(C)c2=O)cc1 | -4%
CC(C)Cn1c(C(C)C)nc([N+](=O)[O-])c1S(=O)(=O)c1ccc(F)cc1 | -10%
CCN(CC)CCNC(=O)c1c(O)c2cccc3c2n(c1=O)CCC3 | -20%
COc1ccc(-c2cc(C(=O)N3CCCc4ccccc43)no2)cc1OC | -19%
Cc1cc(-c2cc(-c3ccc(Cl)cc3)nc(N)c2C#N)co1 | ?
O=C(N/N=C/c1c[nH]c2c1ccc1ccccc12)c1ccc([N+](=O)[O-])cc1 | -15%
Nc1nc(SCC(=O)Nc2ccccc2-c2ccccc2)n[nH]1 | -10%
Cn1cccc1C(=O)N1CCC2(CC1)CN(Cc1cc(C(F)(F)F)cc(C(F)(F)F)c1)C2 | -2%
O=C(Nc1nc2c(s1)CCCC2)c1ccc(Br)s1 | 20µM*
COc1ccc(-n2cnnc2SCc2csc(-c3ccccc3)n2)cc1 | -11%
CCn1c(O)c(N=NC2=NC(=O)CS2)c2ccccc21 | -20%
Cc1c(N2C(=O)C(=O)/C(=C(/O)c3ccc(Cl)cc3)C2c2ccccc2)c(=O)n(-c2ccccc2)n1C (configuration not stated) | -1%
CC(C)(C)NC(=O)CN(Cc1cccs1)C(=O)CNS(=O)(=O)c1ccccc1 | -1%

Looked up by compound from the entries so far (2):
SMILES | HPGD inh
O=C(N/N=C/c1c[nH]c2c1ccc1ccccc12)c1ccc([N+](=O)[O-])cc1 | -15%
CCN(CC)CCNC(=O)c1c(O)c2cccc3c2n(c1=O)CCC3 | -20%

Next part:
SMILES | HPGD inh
CC(Nc1c([N+](=O)[O-])c(=O)oc2ccccc12)C(Cl)c1ccccc1 (configuration not stated) | -9%
COCC(=O)N1CCC2(CCCN(C(=O)Nc3ccccc3)C2)CC1 | -3%
COc1cccc(CNC(=O)Cn2cc3c(n2)CCCCC3)c1 | -5%
COc1cc2nc(CN(C)CC(=O)Nc3ccc(N4CCOCC4)cc3)[nH]c(=O)c2cc1OC | ?
NS(=O)(=O)c1ccc(N=Cc2ccc(Br)s2)cc1 | 0%
COc1cc(SC)ccc1C(=O)NCCCOC(C)C | -13%
CC(C)CNC(=O)CC(=O)N/N=C/c1ccc(F)cc1 | -11%
CCCn1c(C)nc2c(N3CCCN(Cc4ccccc4)CC3)nc(C)nc21 | -3%
COc1ccc(C(=O)Nc2ccc(S(=O)(=O)N3CCCCC3)cc2)cc1OC | 0%
O=C(CN1CCCCCC1)Nc1cccc2c1OCO2 | -23%
C[C@@H](C(=O)Nc1ccc2ccccc2c1)[C@H]1C[C@]1(C)[C@H](NS(=O)(=O)c1ccc2ccccc2c1)c1ccccc1 | -30%
Cc1ccc(C)n1C1CCS(=O)(=O)C1 (configuration not stated) | -2%
C[C@@](N)(Cc1ccc(O)cc1)C(=O)O | -11%
COc1ccc(-c2cn3ccccc3n2)cc1OC | ?
COC(=O)c1ccc(Oc2c(Cl)cccc2[N+](=O)[O-])cc1 | -17%
CC(O)/C=C/c1cccc[n+]1C (configuration not stated) | -11%
CCc1cccc2sc(NC(=O)c3ccc(N4C(=O)CCC4=O)cc3)nc12 | -17%
C=CCn1c(SCC(=O)Nc2ccc(-c3nc4ccc(C)cc4s3)cc2)nnc1-c1ccccc1 | ?
C[C@@]1(C(=O)O)NCCc2cc(O)c(O)cc21 | ?
O=P(COCCO)(c1ccccc1)c1ccccc1 | 0%
C=CCNC(=O)CN1CCC(O)(c2ccc(F)cc2)CC1 | -9%
COC(=O)CS(=O)(=O)c1ccc2c(c1)CC(=O)N2 | 0%
CC(CCc1ccccc1)NC(=O)C(Cc1ccccc1)NS(=O)(=O)c1cccs1 (configuration not stated) | -8%
N#Cc1cccc(-c2nc(N3CCNCC3)c3ccccc3n2)c1 | -12%
C/C(N)=C(/C#N)C(=O)COC(=O)c1cccc2ccccc12 | ?
O=C(Nc1ccc2nn(-c3ccccc3)nc2c1)c1cccs1 | ?
COc1cc(C(=O)n2nc(C)cc2C)ccc1O | -5%
CNC(=O)CC(C(=O)O)c1ccc(OC(C)C)cc1 (configuration not stated) | -9%
Cc1cc(Oc2ccccc2)nc(NCc2ccccc2)n1 | -14%
CCOc1ccccc1NC(=O)Cn1cnc2c(cnn2-c2ccc(C)c(C)c2)c1=O | ?
Cc1cccc(NC(=O)CSc2nnc([C@@H](N)Cc3ccccc3)o2)c1C | -8%
Cc1nc2sc(C(c3cccc(F)c3)N3CCC(O)CC3)c(O)n2n1 (configuration not stated) | -10%
CC1=CC(=C2C(=O)c3ccccc3C2=O)C=C(C)O1 | -4%
COC(=O)[C@@H](N)CS | -12%
CC1CCc2c(sc(N)c2C(N)=O)C1 (configuration not stated) | ?
COc1ccc(S(=O)(=O)N(CC(=O)Nc2ccc(S(=O)(=O)N3CCOCC3)cc2)Cc2ccc(F)cc2)cc1 | -7%
O=C(Nc1ccn(Cc2ccc(Cl)cc2)n1)c1ccc2c(c1)OCO2 | -20%
C[C@H]1/C=C\CC(=O)NCc2cccc(c2)CNC(=O)N[C@H]1c1ccccc1 | -2%
O=C(Nc1nc(-c2ccccc2)cs1)c1ccccc1NS(=O)(=O)c1ccc(F)cc1 | ?
N#CC(C(=O)CCN1C(=O)C2CC=CCC2C1=O)c1nc2ccccc2[nH]1 (configuration not stated) | -11%
CCOc1ccc2nc(SC3CC(=O)N(c4ccc(OC)cc4)C3=O)sc2c1 (configuration not stated) | -27%
COC(=O)c1ccc(S(=O)(=O)N2CCC(c3nc4ccccc4o3)CC2)cc1 | -7%
COC(=O)[C@H]1Cc2c([nH]c3ccccc23)CN1C(=O)COc1ccc2c(C)cc(=O)oc2c1 | -19%
CCn1c(SCC(=O)c2[nH]c(C)c(C(C)=O)c2C)nnc1-c1ccccc1 | -10%
CCOc1cc(C2C(C#N)=C(N)OC(C)=C2C(C)=O)c(Br)c(Br)c1OC(C)C (configuration not stated) | -25%
O=S1(=O)N=C2CCCCCN2C(c2ccncc2)N1 (configuration not stated) | -3%

Bioassay records deposited in PubChem BioAssay by National Center for Advancing Translational Sciences (NCATS).

A portion of the library (hit frequency here may not be typical).
